gsp antag: antagonizes gsp, the McCune-Albright syndrome mutation | Potency, µM (titrated, usually from 76.9 µM), without a hit: at the top dose activity change, negative = inhibition, hits mostly inhibitors | 340,000 compounds, 0.4% hits | AID 624288 | gsp-mutant cells, cAMP HTRF, 30 min; control for the full effect not named in the record; active = falling curve of any shape with a large fitted effect; inconclusive = falling curve, mostly with a smaller effect; inactive = flat or rising curve; cell line not stated here;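 also: intracellular cAMP measured with PDE inhibitor Ro 20-1724 present during compound exposure; potency is read from the fitted curve at half-maximal effect; % is scaled to controls: 0 for no effect and ±100 for the full control effect; nearly all actives have a fitted effect of over 65% in size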
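Cells in G418 medium, seeded 16-24 h, 37C; buffer exchange to DPBS + 1 mM CaCl2, 0.5 mM MgCl2, 0.05% BSA; cpds in DMSO + […] (300 uM stock), 30 min 37C; HTRF cAMP detection.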
Six1-Eya2 blk: Six1/Eya2 interaction inhibition | AlphaScreen GST-Six1/His-Eya2 binding, biochemical; active compounds read low; control for the full effect not named in the record | activity change, % (concentration not given with the values) | 360,000 compounds, 0.56% hits; in the data active = activity change below about -65%; inconclusive = about -30% to -65%; inactive = above about -30%; also: % is scaled to controls: 0 for no effect and ±100 for the full control effect
Target sequence (O00167 whole entry, looked up): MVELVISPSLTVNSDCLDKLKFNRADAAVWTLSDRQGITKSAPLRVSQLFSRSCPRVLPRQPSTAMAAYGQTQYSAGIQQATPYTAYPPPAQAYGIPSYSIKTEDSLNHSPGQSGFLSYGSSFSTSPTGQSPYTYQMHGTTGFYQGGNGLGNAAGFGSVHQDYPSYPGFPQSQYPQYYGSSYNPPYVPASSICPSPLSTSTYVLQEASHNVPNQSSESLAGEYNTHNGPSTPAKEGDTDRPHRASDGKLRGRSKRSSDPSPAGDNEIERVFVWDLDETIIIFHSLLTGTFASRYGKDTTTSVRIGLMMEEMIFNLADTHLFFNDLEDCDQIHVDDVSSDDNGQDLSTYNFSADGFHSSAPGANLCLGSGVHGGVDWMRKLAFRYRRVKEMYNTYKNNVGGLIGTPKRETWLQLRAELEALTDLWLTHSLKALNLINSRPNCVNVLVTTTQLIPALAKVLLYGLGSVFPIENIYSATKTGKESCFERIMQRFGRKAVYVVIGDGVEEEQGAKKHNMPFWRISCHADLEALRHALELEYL
Target sequence (Q15475 whole entry, looked up): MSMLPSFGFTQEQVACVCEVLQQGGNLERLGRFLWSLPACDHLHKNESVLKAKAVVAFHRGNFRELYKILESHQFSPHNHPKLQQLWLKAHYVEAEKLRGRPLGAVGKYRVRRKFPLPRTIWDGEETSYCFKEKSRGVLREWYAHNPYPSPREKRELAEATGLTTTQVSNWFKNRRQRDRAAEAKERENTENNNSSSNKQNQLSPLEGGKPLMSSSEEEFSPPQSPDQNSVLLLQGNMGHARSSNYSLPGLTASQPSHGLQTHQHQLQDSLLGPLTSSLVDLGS
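AlphaScreen with GST-Six1 and His-Eya2 (5X mix: 250 nM and 500 nM), glutathione donor and nickel acceptor beads; buffer 50 mM Tris pH 8.0, 300 mM NaCl, 1 mM TCEP; 1 h at 37 C in the dark.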
D2 ag: human D2 receptor agonism in beta-arrestin assay | activation, % (concentration not given with the values) | 360,000 compounds, 0.084% hits | DiscoveRx PathHunter D2 beta-arrestin, luminescence, 90 min; 100% = 57 uM dopamine signal | P14416 | AID 624465; in the data active = activation above about 40%; inconclusive = about 15% to 40%; inactive = below about 15%; also: the text of the record calls up to 30% inactive
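DiscoveRx PathHunter D2 beta-arrestin cells (2,100/well) attached overnight, then compound-stimulated 90 min at 37 C in HBSS/10 mM HEPES/0.1% Tween-20 buffer; beta-galactosidase complementation read by luminescence after 1 h at ambient temperature. Dopamine 57 uM final (EC100) as control.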
gsp ag: agonists of gsp mutant (McCune-Albright syndrome). 340,000 compounds, 0.13% hits. Potency, µM (doses to about 76.9 µM), for inactives: top-dose activation (cAMP increase), hits mostly activators. gsp mutant cells, cAMP HTRF, 30 min; control for the full effect not named in the record; active = well fitted activation curve with a large enough effect; inconclusive = small, poorly fitted or top-dose-only effect, or another doubt; inactive = no such curve, though single readings can be large or run the other way; cell line not stated here;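 also: phosphodiesterase inhibitor Ro 20-1724 added with compounds to block cAMP breakdown; potency is read from the fitted curve at half-maximal effect; nearly all actives have a fitted effect of over 60% in size; about a fifth of the inactives were tested at one dose only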
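Cells stably selected in G418 were plated at 2000/well, grown 16-24 hr, then given compounds in DMSO with the PDE inhibitor […] (300 uM solution added) for 30 min at 37C; cAMP was read by HTRF.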
CtBP-E1A blk: CtBP/E1A binding inhibition; AlphaScreen GST-E1A/His-CtBP binding, 1536-well; active compounds read low; control for the full effect not named in the record; AID 651724; activity change, % (concentration not given with the values); 340,000 compounds, 0.49% hits; in the data active means activity change below about -65%; inconclusive means about -30% to -65%; inactive means above about -30%; also: % is scaled to controls: 0 for no effect and ±100 for the full control effect
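In 5 uL wells, 23 nL compound meets equimolar GST-E1A and His-CtBP (5X stock 125 nM each) for 2 h, 37 °C. Beads (5X, 50 ug/mL) then 1 h, 37 °C, dark.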
D2 potentiator: potentiates the human D2 dopamine receptor allosterically; DiscoveRx D2 beta-arrestin cells, luminescence, 90 min; 100% = 57 uM dopamine signal; 360,000 compounds, 0.23% hits; potentiation, % (no concentration beside the values); P14416; active = potentiation of 50% or more; inconclusive = 30% to 50%; inactive = 30% or less;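 also: compound concentration not given in the record; tested on top of an EC20 dose of dopamine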
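PathHunter beta-arrestin assay in DiscoveRx D2 cells. Compounds were added with an EC20 of dopamine (50 nM final) for 90 min at 37 deg C. Luminescence was read 1 h after detection reagent, with 57 uM dopamine as the EC100 control.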
Numbers without * were called inactive; u = inconclusive; x = not tested or not shown; [ ] = dose if it differs, or a comment.

structure	gsp antag	Six1-Eya2 blk	D2 ag	gsp ag	CtBP-E1A blk	D2 potentiator
Cc1ccccc1Nc1nnc(SCC(=O)NC2CCCc3ccccc32)s1 (stereo not drawn)	-2%	-9	-2.5	-23%	4	-13
Cc1cccc(N2C(=O)CC(N3CCN(Cc4ccc5c(c4)OCO5)CC3)C2=O)c1 (stereo not drawn)	4%	3	1.3	-4%	2	-16
CC(C)C[C@@H](CO)N1CCN(Cc2ccc([N+](=O)[O-])cc2)CCC1=O	7%	-6	-1.3	-9%	6	-7
CCCn1c(N)c(C(=O)COC(=O)COc2ccc(Cl)c(C)c2)c(=O)n(C)c1=O	3%	-2	-2.8	-2%[15.4 µM]	-2	-7
C=CCN=C1SC(C)(C)C(=O)N1S(=O)(=O)c1ccc(C)cc1	0%	-4	-4.9	-12%[15.4 µM]	13	-5
CC(C)OC(=O)CC(=O)CSc1nc2c(c(-c3cccs3)c1C#N)CCC2	u	6	-3.4	u	x	-6
COc1cccc(NC(=O)CN2CCN(CC(=O)Nc3ccccc3Cl)CC2)c1	-6%	2	-1.6	29%	1	2
CCOC(=O)c1ccc(NC(=O)CSCc2ccco2)cc1	2%	6	-1.5	-20%	44	-1
O=c1c2c3c(sc2ncn1Cc1ccc(F)cc1)CCC3	-5%	-6	-0.9	-50%[inhibitor]	-13	10
Cc1cccc(NS(=O)(=O)c2cccc(C(=O)N3CCN(C/C=C/c4ccccc4)CC3)c2)c1	u	-10	11	-21%	-3	4
COc1cc(CNc2ccccc2SC)ccc1O	-15%	-11	4.3	16%	-18	13
Cn1ccnc1SCC(=O)Nc1ccc(SC(F)F)cc1	6%	0	1.8	u	x	-11
CCCS(=O)(=O)NC(=O)C1(C)CCCN(C(=O)c2ccccc2Br)C1 (stereo not drawn)	x	-5	3.4	x	8	2
CCN(CC)C(=O)C1=C(C)N(Cc2ccc(F)cc2)C(=O)C(CC(=O)NCCc2ccccn2)C1 (stereo not drawn)	x	-4	-0.1	-1%	4	x
Cc1c(NC(=O)c2cccc(-c3cc4ccccc4oc3=O)c2)cccc1-c1nc2ncccc2o1	-19%	-11	0.8	2%	-11	-10

Structures listed so far that have a carbonyl joined to an NH by a bond outside any ring:
structure	gsp antag	Six1-Eya2 blk	D2 ag	gsp ag	CtBP-E1A blk	D2 potentiator
Cc1ccccc1Nc1nnc(SCC(=O)NC2CCCc3ccccc32)s1 (stereo not drawn)	-2%	-9	-2.5	-23%	4	-13
COc1cccc(NC(=O)CN2CCN(CC(=O)Nc3ccccc3Cl)CC2)c1	-6%	2	-1.6	29%	1	2
CCOC(=O)c1ccc(NC(=O)CSCc2ccco2)cc1	2%	6	-1.5	-20%	44	-1
Cn1ccnc1SCC(=O)Nc1ccc(SC(F)F)cc1	6%	0	1.8	u	x	-11
CCCS(=O)(=O)NC(=O)C1(C)CCCN(C(=O)c2ccccc2Br)C1 (stereo not drawn)	x	-5	3.4	x	8	2
CCN(CC)C(=O)C1=C(C)N(Cc2ccc(F)cc2)C(=O)C(CC(=O)NCCc2ccccn2)C1 (stereo not drawn)	x	-4	-0.1	-1%	4	x
Cc1c(NC(=O)c2cccc(-c3cc4ccccc4oc3=O)c2)cccc1-c1nc2ncccc2o1	-19%	-11	0.8	2%	-11	-10

The results go on.
structure	gsp antag	Six1-Eya2 blk	D2 ag	gsp ag	CtBP-E1A blk	D2 potentiator
Cc1c(C(=O)Nc2nnc(C(F)(F)F)s2)oc2ccccc12	u	-7	-1.3	-22%	-17	-6
Cn1cc(C(=O)c2ccc(Cl)cc2)cc1-c1nc2ccccc2n1C	35µM*	-20	0.8	u	-6	-37
Nc1cc2nc3ccccc3oc-2cc1=O	-13%	-26	13	x	u	29
CC1(C)CC(NC(=O)COc2ccc3ccccc3c2)CC(C)(C)N1	3%	3	5.4	-4%	1	-4
Cc1ccc(F)cc1NS(=O)(=O)c1ccc(Cl)s1	5%	5	2.8	-20%	-1	-2
Cc1ccc(-c2c(C(=O)NCc3ccc(F)cc3)oc(=O)c3ccccc23)cc1	-18%	2	-4.3	-4%	0	-29
COc1ccc(-n2cc(C(=O)O)c3ccccc3c2=O)cc1	-17%	3	0.0	6%	-4	-7
COc1ccc(CCN2C(=O)C3CC(C)=C(C)CC3C2=O)cc1OC (stereo not drawn)	0%	2	-2.4	-2%	5	-8
CN(C)C(=O)c1ccc(NC(=O)COC(=O)c2cc3c(s2)CCCCC3)cc1	-18%	-2	11	-5%	4	-1
COc1ccc(-c2nc(C#N)c(N3CCN(c4ccccc4)CC3)o2)cc1	4%	-16	-3.4	-9%	-6	-4
O=C(CSc1nnc(-c2ccc(S(=O)(=O)N3CCCC3)cc2)o1)NCC1CCCO1 (stereo not drawn)	-5%	1	-1.5	-20%[15.4 µM]	1	-3
O=c1[nH]cnc2c1C(c1ccc(Cl)cc1)c1c(nc[nH]c1=O)O2	-13%	-13	-14	12%[15.4 µM]	-8	-5
O=C1CS/C(=N/N=C/c2ccccc2)N1Cc1ccco1	-21%	13	-2.3	3%[15.4 µM]	3	-11
CC(C)[C@H](NC(=O)N1c2ccccc2NC(=O)[C@@H]1C(C)C)C(=O)N[C@@H](Cc1ccccc1)C(=O)O	12%	16	-2.9	x	32	-19
Cc1cccc(OCc2nnc(SCC(=O)N3c4ccccc4CCc4ccccc43)o2)c1	-7%	-3	-2.5	17%[15.4 µM]	-1	-4
CN(C)c1cc(-c2cccc(C(F)(F)F)c2)oc(=O)c1Cl	-7%	12	-10	-8%[15.4 µM]	-20	10
CC(C)CNS(=O)(=O)c1cc(C(=O)OCC(=O)c2ccc3c(c2)OCCO3)c(Cl)cc1Cl	-11%	3	-1.3	8%[15.4 µM]	2	11
N#Cc1cc2c(=O)n3ccccc3nc2n(CCCN2CCOCC2)c1=O	21%	-1	-2.6	35µM*	0	-22
CN(C)CCCOC(=O)c1ccc(Cl)cc1Cl	17%	-1	-1.7	-6%	-1	-21
CCOc1ccc(N2C(=O)C(C)CNC2=S)cc1 (stereo not drawn)	5%	5	-1.5	7%	0	-12
C(=N\Nc1nc2ccccc2s1)/c1ccc2c(c1)OCO2	-3%	-3	-2.2	-3%[15.4 µM]	3	-13
CC1Nc2nc(NC(=O)C(C)(C)C)[nH]c(=O)c2N(C)C1C (stereo not drawn)	18%	-5	-2.7	-7%[15.4 µM]	11	6
O=C(NCC(=O)N1CCN(S(=O)(=O)c2cccs2)CC1)c1ccc(Cl)cc1	-8%	10	1.4	23%[15.4 µM]	5	-2
Cc1cc(/C=C2/C(=O)NN(c3ccccc3)C2=O)c(C)n1-c1cccc(O)c1	-13%	-22	-4.1	19%	-9	-11
Cc1cccc(C(=O)N/C(=C\c2ccco2)C(=O)N2CCCCCC2)c1	0%	-13	-2.7	-1%	0	-8
COc1cc([N+](=O)[O-])ccc1NC(=O)NCCCN1CCCC1=O	-13%	0	-4.1	u	1	-24
Cc1ccc(NC(=O)c2ncn(CC(=O)NCc3ccc4c(c3)OCO4)n2)cc1C	2%	2	-3.1	x	-17	x
Cc1nn(C)c(C)c1/C=N/O	2%	-1	-1.8	u	9	-5
COc1ccc(-c2csc(NC(=O)c3ccccc3F)c2C(=O)O)cc1	-28%	-1	-0.6	-1%	u	-10
C/C(CC(=O)Nc1ccc(N(C)C)cc1)=N\NC(=O)c1ccccn1	-10%	u	-2.5	-52%[inhibitor]	u	15
CN(C)C(=O)CCc1nc(-c2ccc(C(C)(C)C)cc2)no1	-7%	10	3.5	1%	3	-19
COC(=O)c1sc(OC)cc1OCc1ccc(C)cc1	10%	3	-1.6	-2%	-1	-10
Cc1cc(C)c(C#N)c(SCc2ccccc2C)n1	1%	36	-1.0	22%	17	-7
O=C(CCN1C(=O)/C(=C/c2ccccc2F)SC1=S)NCCc1ccc(O)cc1	-12%	-1	5.2	-17%	u	-5
CCCSc1nnc(NC(=O)Nc2ccc(C)cc2)s1	-13%	5	4.3	6%	4	-3
O=C1CC2(CCN(C(=O)c3c(F)cccc3F)CC2)Oc2ccccc21	-8%	-4	-1.6	u	11	-13
CC(=O)NCc1cccc(CNC(C)=O)n1	2%	4	-2.5	17%	5	-15
O=C(c1ccc(S(=O)(=O)Nc2ccc(F)cc2)cc1)N1CCN(c2ccccn2)CC1	x	-2	1.4	6%[15.4 µM]	0	4
COc1ccc(C(=O)C[n+]2cccc(Br)c2)cc1	2%	19	-5.9	-10%[15.4 µM]	-16	7
CC1CCCCN1CCNC(=O)C1CCCN(c2ncnc3c2nc2n3CCCCC2)C1 (stereo not drawn)	10%	1	-2.3	u	7	-20
Cc1cccc(NC(=O)c2ccc(Cl)c(S(=O)(=O)N3CCc4ccccc43)c2)n1	-18%	-21	-3.9	u	x	2
Cc1oc(-c2ccc(Cl)cc2)nc1CS(=O)CC(=O)NCCCN(C)C1CCCCC1 (stereo not drawn)	12%	-3	-2.8	0%	-1	-1
Fc1ccc(C2=CC(c3cccs3)n3nnnc3N2)cc1 (stereo not drawn)	3%	6	-2.4	29%	-2	0
c1ccc(OCCOCCOc2ccccc2)cc1	1%	11	0.3	-21%	10	-4
COc1cc(C(=O)NC(C)c2ccc3ccccc3c2)cc(Cl)c1O (stereo not drawn)	-1%	-22	-1.9	0%[15.4 µM]	-16	-10

Marked active in gsp ag (from the list above):
Compound	Six1-Eya2 blk	D2 ag	gsp ag	CtBP-E1A blk	D2 potentiator
N#Cc1cc2c(=O)n3ccccc3nc2n(CCCN2CCOCC2)c1=O	-1	-2.6	35µM*	0	-22

Next section.
structure	gsp antag	Six1-Eya2 blk	D2 ag	gsp ag	CtBP-E1A blk	D2 potentiator
CC(=O)Nc1ccc(-c2nnc(SCC(=O)c3ccc4c(c3)Cc3ccccc3-4)n2C)cc1	10%	-4	6.9	-52%[inhibitor]	4	-8
Cc1ccc(C)c(N2CCN(C(=O)CCS(=O)(=O)c3ccc4c(c3)oc(=O)n4C)CC2)c1	-8%	-1	-2.9	-1%	2	-6
CC(C(=O)N1CCN(c2ccc(Cl)cc2)CC1)c1ncc(C(F)(F)F)cc1Cl (stereo not drawn)	35µM*	-7	3.1	-62%[inhibitor]	-11	-6
CCOC(=O)c1ccc(NC(=O)C2CC(=O)N=C(N)S2)cc1 (stereo not drawn)	-1%	4	-3.8	-8%	x	-9
Cc1ccc(N2C(=O)CC(Nc3cccc4ccccc34)C2=O)cc1 (stereo not drawn)	0%	3	2.4	0%[15.4 µM]	-5	-6
COc1ccc(NC(=O)NCc2ccco2)c(OC)c1	3%	1	-5.4	19%	9	-4

High-throughput results from PubChem BioAssay.
